MT1-MMP act inh = blockers of MT1-MMP proenzyme processing, primary screen, HT1080 RFP-PRO-GFP cells, GFP/RFP fluorescence | hit rate 0.061% among 360,000 | AID 651647, 2012 | Matrix metalloproteinase-14 (Homo sapiens), P50281 | GFP/RFP ratio change, % at 20 µM | GFP/RFP ratio fluorescence, overnight; percent of plate control window, DMSO zero;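 active = GFP/RFP ratio change of at least 30% with cell ATP level not reduced by more than half and red fluorescence within 50% of control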; note: strong numbers were not always called active
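Read-out: GFP/RFP fluorescence ratio; Test system: RFP-PRO-GFP reporter HT1080 cells; Compound dosing: single-point 20 µM compound, 1% DMSO; Times: overnight compound exposure at 37 °C.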
CSC inhib = cancer stem cell viability inhibitors, primary screen, luminescence. cancer stem cell-like cells viability. inhibition, % at 7.5 µM. hit rate 1.1% among 300,000;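 active = mean at 75% or more and at least half the replicates too; tested in HMLE shEcad cells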;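 note: 0% = median of negative and 100% = median of positive control wells; the first replicate is given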
eIF4H inh = human eIF4H binding inhibitors, primary screen, translation initiation inhibitor project, biochemical, uHTS, fluorescence polarization. Eukaryotic translation initiation factor 4H (Homo sapiens), Q15056. eIF4H fluorescence polarization binding assay. inhibition, % at 35 µM. hit rate 0.94% among 290,000;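 active = 50% or more with normal probe brightness, or confirmed in later tests; about a fifth of its hits are not listed in these tables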;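 note: calls also rest on retests at 20 µM and on dose response follow-up; 0% = protein and probe with vehicle and 100% = probe without protein; strong numbers were not always called active; many hits fall short of the cut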
Rce1 inh = yeast Rce1p protease inhibitors, primary screen, biochemical, fluorescence, cell-free homogeneous; CAAX prenyl protease 2 (Saccharomyces cerevisiae (strain ATCC 204508 / S288c)), Q03530; yeast membranes, quenched prenylated peptide cleavage fluorescence; calls only; hit rate 0.27% among 290,000;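 active = fall in fluorescence gain of 50% or more versus controls, with final raw signal at or below 3038400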;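 note: plate controls were neutral control wells for no effect and wells lacking membranes for full effect; tested at 10 µM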
HIV Env fusion = inhibitors of HIV-1 Env-driven cell-cell fusion, primary screen, HeLa-JRFL effector, CEM21 target cells, luciferase | inhibition, % at 12.3 µM | hit rate 1.1% among 360,000 | AID 651610, 2012;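 active = mean replicate inhibition score of at least 50 and every replicate individually at or above 50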;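 note: 0% = plate neutral controls and 100% = maraviroc near 300 nM; one replicate is shown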
PABP FP inh = PABP poly(A) RNA binding inhibitors, primary screen, biochemical, fluorescence polarization, uHTS; hit rate 1% among 290,000; Polyadenylate-binding protein 1 (Homo sapiens), P11940; inhibition, % at 35 µM;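 active = 50% or more with normal probe brightness, or confirmed in later tests; about a fifth of its hits are not listed in these tables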;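 note: calls also rest on retests at 20 µM and on dose response follow-up; controls were probe without protein and protein plus probe with vehicle; some compounds called inactive have numbers as strong as hits; many hits fall short of the cut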
Target sequence (P11940 whole entry, looked up): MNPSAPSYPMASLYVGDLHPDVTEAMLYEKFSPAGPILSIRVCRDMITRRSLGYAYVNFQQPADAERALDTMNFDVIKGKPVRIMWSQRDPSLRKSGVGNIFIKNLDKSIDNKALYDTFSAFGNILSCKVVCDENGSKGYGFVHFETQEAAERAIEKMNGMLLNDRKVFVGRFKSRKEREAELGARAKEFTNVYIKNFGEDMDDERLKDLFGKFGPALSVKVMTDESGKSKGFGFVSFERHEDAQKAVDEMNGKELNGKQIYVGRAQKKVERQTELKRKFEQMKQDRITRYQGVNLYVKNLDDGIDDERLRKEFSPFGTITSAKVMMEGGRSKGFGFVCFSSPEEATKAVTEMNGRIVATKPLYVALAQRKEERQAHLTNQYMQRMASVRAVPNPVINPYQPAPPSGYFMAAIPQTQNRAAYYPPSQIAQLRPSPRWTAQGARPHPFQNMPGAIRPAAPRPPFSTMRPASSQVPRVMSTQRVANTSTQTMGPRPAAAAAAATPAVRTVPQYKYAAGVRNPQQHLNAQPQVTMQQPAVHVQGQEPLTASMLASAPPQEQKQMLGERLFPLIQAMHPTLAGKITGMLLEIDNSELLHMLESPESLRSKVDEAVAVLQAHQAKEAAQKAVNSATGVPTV
Yeast UUG start = modulators of yeast start codon fidelity, primary screen, whole organism, S. cerevisiae, single point, plate reader. hit rate 0.13% among 350,000. activity score, % at 18.7 µM. S. cerevisiae UUG-firefly luciferase reporter, luminescence/redox ratio. AID 602363, 2012;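 active = replicate mean at a twofold rise or more, about +100% in these data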;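 note: firefly luciferase made from a UUG start codon reports start codon fidelity; reporter light over untreated wells divided by growth signal over untreated wells; some hits fall short of that in this replicate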
MT1-MMP act inh RFP = further read-out of MT1-MMP act inh, marked with its call; RFP signal change, %; measured here: RFP expression control read;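 0 = vehicle wells; hits needed this value within 50% of zero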
Numbers without * were called inactive; i = inactive; · = no result given. Some of the compounds tested; count on the stated rates, not on these rows.

Second line of a record – PABP FP inh, MT1-MMP act inh, Rce1 inh, Yeast UUG start, CSC inhib, HIV Env fusion, MT1-MMP act inh RFP, eIF4H inh
Cc1noc(NS(=O)(=O)c2ccc(N/C=C\C(=O)c3ccc(Br)cc3)cc2)c1C
  16, -4, i, ·, -8, 19, -3, 8
CCSc1nnc(NC(=O)[C@@H](NC(=O)c2ccc(C(C)(C)C)cc2)C(C)C)s1
  8, -8, i, -13, 25, -5, -4, 7
CC(OC(=O)CCN1C(=O)C2CC=CCC2C1=O)C(=O)Nc1cccc(C#N)c1 (stereo not drawn)
  ·, 1, i, ·, -13, 10, -1, ·
C#CCOCCOCCOCCNc1nc(N2CCN(C(=O)Cn3cc(CCO)nn3)CC2)nc(N2CCN(C(=O)[C@H](Cc3ccc(O)cc3)n3cc(CCO)nn3)CC2)n1
  ·, 4, ·, 24, ·, 7, 0, ·
COCCCN(C(=O)CSc1nc2ccccc2c(=O)n1C)c1c(N)n(Cc2ccccc2)c(=O)[nH]c1=O
  ·, 0, ·, -1, ·, -7, 5, ·
Cc1ccc(-c2cc(C(=O)Nc3cc(C(=O)O)ccc3C)c3ccccc3n2)cc1
  -10, 1, ·, -29, -1, 5, 0, 5
COc1cccc(C(=O)Nc2cccc3ccccc23)c1
  3, -3, i, -5, -2, -9, 0, -7
O=C(COc1cc([N+](=O)[O-])cc2cccnc12)NCCC1=CCCCC1
  1, 4, ·, -19, -6, -7, 5, -8
CON(C)S(=O)(=O)c1ccc2c(c1)NC(=O)C1CCCN21 (stereo not drawn)
  3, 11, i, -18, -8, -19, 6, 4
Cc1noc(C)c1C(=O)N1CCN(S(=O)(=O)c2ccc(F)cc2)CC1
  -10, 2, i, ·, -13, -14, 4, -4
CCN(C(=O)COC(=O)c1cc2c(s1)CCC(C)C2)c1c(N)n(Cc2ccccc2)c(=O)[nH]c1=O (stereo not drawn)
  ·, -4, ·, 8, ·, 3, -5, ·
COc1ccc(CCNC(=O)C2CC(=O)N(C3CCCCCCC3)C2)cc1OC (stereo not drawn)
  10, 0, i, 2, -2, -97, 6, -3
CCOC(=O)/C=C/C(=O)Nc1ccc(S(=O)(=O)Nc2cc(OC)nc(OC)n2)cc1
  ·, -2, ·, -10, ·, 9, -1, ·
Cc1cccc(N(CC(=O)N/N=C/c2ccc(C(=O)O)cc2)S(=O)(=O)c2ccccc2)c1C
  ·, 5, i, -16, -11, 4, 4, ·
Cc1ccccc1OCCC(=O)OCC(=O)Nc1ccc(N2CCOCC2)cc1
  -10, 1, i, -18, 2, 21, 6, 11
O=C1CN(C(=O)c2ccccc2Br)C(c2ccc(F)cc2)c2cc(F)ccc2N1 (stereo not drawn)
  7, -13, i, 9, -3, 43, -6, 6
CCN(Cc1ccccc1)C(=O)c1oc2ccc(S(=O)(=O)N3CCOCC3)cc2c1C
  ·, 0, i, -3, 1, -7, -5, ·
Cc1nn2c(NCc3cccnc3)c3c(nc2c1-c1ccccc1)CCC3
  -10, 0, i, -17, 51, 18, -8, 1
CCCCCCCC1CC(/C(C)=N/NC(N)=O)OC1=O (stereo not drawn)
  -1, 3, i, -11, -10, 7, -2, 1
O=C(Nc1cccc(C(=O)N2CCN(Cc3ccccc3)CC2)c1)c1ccccc1
  5, 6, i, -5, -7, 17, -1, -2
CC(C)(C)C(=O)Nc1ccc(Cc2ccncc2)cc1
  ·, 1, i, -16, -18, -7, 2, ·
COC(=O)C(=Cc1ccc(-c2ccsc2C(=O)OC)o1)C(=O)OC
  1, -2, i, ·, 17, -121, -3, -5
O=C(CCNC(=O)c1ccc(Cl)cc1)Nc1ccc(S(=O)(=O)N2CCCCC2)cc1
  ·, 1, i, -9, 4, 16, -1, ·
Cc1cccc(C(=O)N/C(=C\c2ccc(C)o2)C(=O)O)c1
  -5, 0, i, -16, -4, -2, 1, 1
CCc1cc(C(=O)N2CCCc3ccccc32)sc1C
  6, -2, i, 10, -5, 2, 2, 10
COC(=O)[C@@H]1C[C@]2(Br)c3ccccc3N(S(=O)(=O)c3ccccc3)[C@@H]2N1C(=O)OC
  ·, -1, i, -5, -4, -7, 1, ·
Cc1ccnc2nc(C(=O)Nc3nnc(CC(C)C)s3)nn12
  4, -5, i, 0, -15, ·, 4, 8
COc1ccc(NC(=O)/C(Cl)=C(/Cl)S(=O)(=O)Cc2ccccc2)cn1
  0, 9, i, -7, ·, ·, 6, -7
COc1ccc(S(=O)(=O)N2CCC(C(=O)N3CCCC3)CC2)cc1
  9, -11, i, -1, -11, ·, -6, -6
COc1ccc(/C=C2\C(=O)c3ccccc3OC2c2ccccc2)cc1 (stereo not drawn)
  7, -3, i, ·, 82*, 40, -11, -6

Laid out differently: 13 of the compounds above.
smiles | PABP FP inh | MT1-MMP act inh | Rce1 inh | Yeast UUG start | CSC inhib | HIV Env fusion | MT1-MMP act inh RFP | eIF4H inh
Cc1noc(NS(=O)(=O)c2ccc(N/C=C\C(=O)c3ccc(Br)cc3)cc2)c1C | 16 | -4 | i | · | -8 | 19 | -3 | 8
CCSc1nnc(NC(=O)[C@@H](NC(=O)c2ccc(C(C)(C)C)cc2)C(C)C)s1 | 8 | -8 | i | -13 | 25 | -5 | -4 | 7
CC(OC(=O)CCN1C(=O)C2CC=CCC2C1=O)C(=O)Nc1cccc(C#N)c1 (stereo not drawn) | · | 1 | i | · | -13 | 10 | -1 | ·
C#CCOCCOCCOCCNc1nc(N2CCN(C(=O)Cn3cc(CCO)nn3)CC2)nc(N2CCN(C(=O)[C@H](Cc3ccc(O)cc3)n3cc(CCO)nn3)CC2)n1 | · | 4 | · | 24 | · | 7 | 0 | ·
COCCCN(C(=O)CSc1nc2ccccc2c(=O)n1C)c1c(N)n(Cc2ccccc2)c(=O)[nH]c1=O | · | 0 | · | -1 | · | -7 | 5 | ·
Cc1ccc(-c2cc(C(=O)Nc3cc(C(=O)O)ccc3C)c3ccccc3n2)cc1 | -10 | 1 | · | -29 | -1 | 5 | 0 | 5
COc1cccc(C(=O)Nc2cccc3ccccc23)c1 | 3 | -3 | i | -5 | -2 | -9 | 0 | -7
O=C(COc1cc([N+](=O)[O-])cc2cccnc12)NCCC1=CCCCC1 | 1 | 4 | · | -19 | -6 | -7 | 5 | -8
CON(C)S(=O)(=O)c1ccc2c(c1)NC(=O)C1CCCN21 (stereo not drawn) | 3 | 11 | i | -18 | -8 | -19 | 6 | 4
Cc1noc(C)c1C(=O)N1CCN(S(=O)(=O)c2ccc(F)cc2)CC1 | -10 | 2 | i | · | -13 | -14 | 4 | -4
CCN(C(=O)COC(=O)c1cc2c(s1)CCC(C)C2)c1c(N)n(Cc2ccccc2)c(=O)[nH]c1=O (stereo not drawn) | · | -4 | · | 8 | · | 3 | -5 | ·
COc1ccc(CCNC(=O)C2CC(=O)N(C3CCCCCCC3)C2)cc1OC (stereo not drawn) | 10 | 0 | i | 2 | -2 | -97 | 6 | -3
CCOC(=O)/C=C/C(=O)Nc1ccc(S(=O)(=O)Nc2cc(OC)nc(OC)n2)cc1 | · | -2 | · | -10 | · | 9 | -1 | ·

More results follow.
Second line of a record – PABP FP inh, MT1-MMP act inh, Rce1 inh, Yeast UUG start, CSC inhib, HIV Env fusion, MT1-MMP act inh RFP, eIF4H inh
COC(CN1C(=O)C(=O)/C(=C(/O)c2ccccc2)C1c1ccccn1)OC (stereo not drawn)
  5, 1, i, ·, -4, -1, 6, -6
O=C(CSc1ccc2c(c1)OCCO2)NC(=O)Cc1ccccc1
  -7, 1, i, -3, -3, 0, 3, -5
Cc1c(NS(=O)(=O)c2cc(C(=O)NCCc3ccc(F)cc3)cc(Cl)c2Cl)c(=O)n(-c2ccccc2)n1C
  ·, 1, ·, 12, ·, -29, 0, ·
COC(=O)c1ccc2c(=O)n(CCCCCC(=O)NCc3ccc4c(c3)OCO4)c(=O)[nH]c2c1
  -34, 4, i, -19, -7, -2, -1, -22
Cc1ccc(C(=O)NCCSC2CCCCC2)cc1S(=O)(=O)Nc1ccccc1
  0, -7, i, ·, 38, ·, -13, -13
CCOc1ccc(CN(CC)C(=O)Cc2c[nH]c3ccccc23)cc1OC
  2, 0, ·, -12, 0, 16, -3, -5
CCOc1ccccc1CN1CCCC(CNC(=O)Cc2ccc(OC)cc2)C1 (stereo not drawn)
  1, -1, i, -5, 1, 9, -1, 1
O=C(N/N=C/c1coc2ccc(Cl)cc2c1=O)c1ccncc1
  6, -6, i, -13, -13, ·, -4, -1
CCOc1ccc(OCCN2C(=O)c3ccccc3C2=O)cc1
  2, 2, i, -12, -8, 4, 7, 1
O=c1c(-c2ccc(O)cc2)coc2c([C@@H]3O[C@H](CO)[C@@H](O)[C@H](O)[C@H]3O)c(O)ccc12
  ·, -3, ·, -18, -5, -3, 0, ·
CN(c1ccccc1)c1ccc(/C=N/N2CCOCC2)cc1
  9, 4, i, -3, -6, ·, -2, 11
COc1cc(/C=N/NC(=O)C(=O)NCC2CCCO2)ccc1O (stereo not drawn)
  -8, 4, i, ·, 1, 5, 4, -3
COC(=O)c1[nH]c2cccc(OC)c2c1NC(=O)CN1CCOCC1
  -6, 7, i, -14, -10, ·, 9, -5
CCOc1ccccc1N(C)S(=O)(=O)c1ccc2c(c1)CCN2C(=O)CCC(=O)O
  5, 3, i, 27, -18, 5, 0, -9
CC(c1ccco1)N(C(=O)c1ccc(Cl)c([N+](=O)[O-])c1)c1ccccn1 (stereo not drawn)
  6, 0, i, 11, 58, 3, 1, 1
Cc1cccc(OCC(=O)Nc2ccc3c(c2)OCCO3)c1
  -4, 1, ·, -5, -11, -108, 3, 6
CCCOc1ccc(C(=O)NCCCn2ccnc2)cc1
  -5, 3, i, -5, ·, ·, 5, -1
COc1cccc(/C=N/NC(=O)CNC(=O)/C=C\c2ccccc2)c1O
  -6, 9, i, -3, 23, 7, 2, -6
CC(=O)Nc1ccc(N=Cc2ccc(OCc3ccccc3)cc2)cc1
  3, 2, i, ·, -9, 5, 0, -9
CC1(C(=O)NS(=O)(=O)c2cccc(F)c2)CCN1C(=O)CCC1CCCC1 (stereo not drawn)
  ·, 1, ·, 5, ·, 6, 3, ·
O=C(CN(Cc1ccc2c(c1)OCO2)C(=O)CNS(=O)(=O)c1ccccc1)NCc1ccco1
  -1, -1, i, -13, ·, ·, 4, -14
CC1CCN(C(=O)COC(=O)c2ccc3c(c2)OCO3)CC1
  -1, 4, i, -13, ·, -7, 4, 1
CCOc1ccc(NC(=O)Cn2nnc(-c3ccc(C(N)=O)cc3)n2)cc1S(=O)(=O)N1CCCC1
  ·, 13, ·, 0, ·, -32, 1, ·
CSc1ncccc1C(=O)N1CCCC(CCC(=O)NCc2ccccc2F)C1 (stereo not drawn)
  2, 1, i, ·, -3, 10, 0, -6
CC(C(=O)c1ccccc1)[n+]1cccc(Br)c1 (stereo not drawn)
  13, -4, i, 0, -12, 3, 0, 8
Cc1cc(O)c(N=Nc2ccc(C(=O)O)cc2)cc1C
  ·, 6, ·, -4, ·, -164, 2, ·
CCCCCOc1ccc(CN2CCOCC2)cc1Cl
  2, -1, ·, -10, 51, -73, -2, 1
C[C@H]1O[C@H](O[C@H]2[C@H](O)[C@@H](O)[C@@H](O[C@H]3[C@H](O)[C@@H](O)C(O)O[C@@H]3CO)O[C@@H]2CO)[C@H](O)[C@@H](O)[C@@H]1N[C@H]1C=C(CO)[C@@H](O)[C@H](O)[C@H]1O (stereo partly drawn)
  0, ·, i, ·, -3, ·, ·, 7
Cc1oc(-c2cccs2)cc1C(=O)N1CCC(C)(C(=O)NS(=O)(=O)C2CC2)C1 (stereo not drawn)
  ·, 0, ·, -9, ·, 16, 8, ·

From PubChem BioAssay
